# Assay outcomes (PubChem BioAssay)
# Autofluor counter = flagged as autofluorescent in microsphere protease counterscreen. compound autofluorescence counterscreen, microsphere flow cytometry; hits give high values. fluorescence intensity (concentration not given with the values). 360,000 compounds, 3.1% hits. AID 624483;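 active = at least 3 SD above the mean of all compounds, about 16000 in these data; inconclusive = too few beads counted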;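 note: 100 nL of 1 mM stock went into each well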
# Sa ugtP lethal = compounds lethal to S. aureus RN4220 ugtP deletion mutant. growth inhibition, % (test concentration not listed). 330,000 compounds, 0.54% hits. AID 1259309. OD600 growth, 16 h; some inactives read as strong as hits;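 active = z-score under -3 and OD600 up to 0.15 on both plates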;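 note: plate controls were untreated wells for no effect and antibiotic for full effect; wells of about 80 µL received 100 nL stock; the first replicate is given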
# Mtb hypoxia inh = reduces hypoxia-regulated biosensor signal in M. tuberculosis. M. tuberculosis hypoxia-regulated fluorescent reporter, fluorescence. fluorescence inhibition, % (test concentration not listed). 300,000 compounds, 0.1% hits. AID 1159583;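 active = 35 to 45% if threefold the growth effect, above 45% if 1.5-fold the growth effect; inactive = the rest, general growth blockers included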;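 note: wells of about 50 µL received 100 nL stock; 0% = vehicle wells and 100% = reference inhibitor wells; whole bacteria with a GFP reporter of the hypoxia response; strong numbers were not always called active; many hits fall short of the cut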
# Sa RN4220 lethal = S. aureus RN4220 growth inhibition | OD600, 16 h | inhibition, % (no concentration beside the values) | 330,000 compounds, 0.33% hits | AID 1259311;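 active = z-score of -3 or lower and OD600 up to 0.18 on both plates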;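 note: plate controls were untreated cells for no effect and reference antibiotic for full effect; stock transfer was 100 nL into about 80 µL; one replicate is shown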
# BJeLR lethal = kills HRASV12-expressing BJeLR cells. BJeLR (HRASV12) viability, CellTiter-Glo ATP luminescence, 48 h; reference of the scale not given here. inhibition, % (no concentration beside the values). 300,000 compounds, 0.17% hits. AID 1554;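 active = replicate mean above 50%; inconclusive = above 50% but judged a plate artefact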;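 note: 50 nL library stock added to about 25 µL; numbers are from one replicate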
# PrP UTR inh = suppresses PrP 5' UTR mRNA reporter expression. cell-based PrP 5' UTR mRNA reporter, plate reader. inhibition, % (no concentration beside the values). 340,000 compounds, 0.35% hits. AID 488862;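 active = every replicate at 50% or more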;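 note: 0 = median of the neutral control wells; tested in H4 reporter cells; numbers are from one replicate; inactives centre near -14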
# Mtb hypoxia inh growth = also measured in Mtb hypoxia inh; calls as there; growth inhibition, %; measured here: M. tuberculosis growth (absorbance);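 0% = vehicle and 100% = reference antibiotic; read after six days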
# * = called active by the depositor; ? = inconclusive; · = not tested or not shown.
# Each structure is followed by: Sa ugtP lethal	Mtb hypoxia inh	Mtb hypoxia inh growth	PrP UTR inh	BJeLR lethal	Autofluor counter	Sa RN4220 lethal
- COc1cc(C=NNC(=O)c2ccc(NS(=O)(=O)c3cccs3)cc2)cc(OC)c1O
→ 5	10	19	·	·	·	0.3
- O=C(c1ccccc1)N1CCc2ccccc21
→ 8	-10	-2	-21	-1	?	6.1
- Cc1ccccc1NC(=O)CSC1=C(C#N)C(c2ccsc2)CC(=O)N1 (stereo not given)
→ 7	7	4	-21	-3	3248	5.3
- Cc1nc2sc3c(c2c(=O)n1N)CCC3
→ 10	2	1	-17	-6	4292	8.3
- COc1cccc(/C=N/NC(=O)c2ccc(=O)n(C)c2)c1OC
→ ·	·	·	-20	-7	2391	·
- NS(=O)(=O)c1ccc(N=Nc2c(O)ccc3ccccc23)cc1
→ 8	6	2	-9	-5	4180	7.0
- O=[N+]([O-])c1cccc(/C=N/N2CCN(c3ccccn3)CC2)c1
→ ·	·	·	-100	12	2428	·
- O=C(NCCCn1ccnc1)/C(=C\c1cccnc1)NC(=O)c1cccc(Br)c1
→ 0	3	4	-3	-19	7520	-0.2
- Cc1cc(NC(=O)COC(=O)c2c(C)nn(Cc3ccccc3Cl)c2C)no1
→ -6	-5	-5	-19	-2	3684	1.8
- O=C1[C@H]2CC3CCC2(O3)[C@@H]2OCCCN12 (stereo not given in full)
→ ·	·	·	-2	8	4120	·
- COc1ccc(C(C)=O)cc1COc1ccc(-n2cnnn2)cc1
→ -7	·	·	-1	-2	3640	-3.9
- Nn1c(COc2ccccc2)nnc1SCc1cc(=O)[nH]c2ccccc12
→ 0	4	-2	-25	4	9125	-0.2
- CN1CCN(c2nc3c(c(=O)n(C)c(=O)n3C)n2CC(=O)C23CC4CC(CC(C4)C2)C3)CC1
→ 5	2	3	-15	0	11173	2.6
- NC1=NC(=O)/C(=C\c2ccco2)S1
→ 1	10	0	-10	21	4455	2.8
- O=C(OCC(=O)N1CCCCCC1)c1ccc[nH]c1=O
→ -1	-8	-10	-7	·	3965	1.7
- Fc1ccc(CN2C3=NCCCN3c3ccccc32)cc1
→ ·	·	·	-26	11	2593	·
- Cc1cc(-n2cccn2)ccc1CN1CCN(C2CCCC2)C(CCO)C1 (stereo not given)
→ 2	-4	-2	-20	-13	3160	8.7
- CC1CCCN(C(=O)COC(=O)COc2ccc(Cl)cc2)C1 (stereo not given)
→ 5	2	7	-8	·	3563	2.8
- COc1cc(/C=N/NC(=O)c2ccncc2)ccc1OC(=O)c1ccccc1Cl
→ ·	·	·	-20	5	2569	·
- FC(F)(F)c1ccc(Oc2ccc3c(C(F)(F)F)cc(C(F)(F)F)nc3n2)cc1
→ -8	-2	0	8	2	22830*	3.8
- COc1ccc(C)cc1NS(=O)(=O)c1ccc2c(c1)N(C)CCO2
→ 8	-1	-6	-13	4	4913	7.1
- O=[N+]([O-])c1ccc(N2CCN(S(=O)(=O)c3ccccc3)CC2)cc1NCc1ccco1
→ 1	9	7	·	-2	·	3.6
- CC(/C=C/c1ccccc1)=NNC(=O)C1CC1(C)c1ccccc1 (stereo not given)
→ -10	12	16	·	·	·	-9.2
- Cc1ccc(Cn2nnnc2CN2CCC(O)(c3ccc(F)cc3)CC2)cc1
→ -2	2	-7	-5	-8	7681	4.5
- Cc1ccc(OCCc2csc(N)n2)cc1
→ 3	3	-1	-27	·	4999	14
- O=C(COC(=O)c1cccs1)NCCC1=CCCCC1
→ 1	3	9	-9	-1	2524	2.7
- CC1(C)CC2CC(C)(CN2C(=O)c2cc(-c3ccc(O)cc3)on2)C1 (stereo not given)
→ -6	19	13	-25	-4	4346	8.3
- CCCC(=O)Nc1nnc(S(=O)(=O)N(CC)c2ccc(OC)cc2)s1
→ 11	5	10	-5	2	3799	2.1
- CCOc1ccc(CSCCNC(=S)Nc2ccc(OC)cc2)cc1
→ 20	-5	1	-20	0	6326	2.5
- CCCOc1ccc(N2C(=O)CC(N(CCc3ccc(OC)cc3)C(=O)/C=C/C(=O)O)C2=O)cc1 (stereo not given)
→ 4	4	6	-14	-4	3489	-1.6
- Cc1cccc(C2c3[nH]c4ccccc4c3CCN2C(=O)c2cc(-c3cccn3C)n[nH]2)n1 (stereo not given)
→ -2	-3	1	-10	11	2704	0.1
- O=c1[nH]c(=O)n(Cc2ccco2)c(O)c1C=NC1CCN(Cc2ccccc2)CC1
→ 1	-11	0	·	1	5981	-0.2
- CCN(CC)S(=O)(=O)c1cc(C(=O)O)ccc1Cl
→ 2	9	7	·	-8	10783	4.0
- COc1ccc(C(=O)NNC(=O)C(=O)Nc2ccc(C)cc2)cc1
→ -5	1	-7	-7	-1	6021	2.2
- CCc1nnc(NC(=O)CSc2nc3c(cc2C#N)CCC3)s1
→ -7	9	6	-93	-4	2723	3.0
- CCCNc1nc(Cl)nc(Nc2ccc(Cl)cc2)n1
→ -3	-11	10	-18	0	3769	-0.3
- COc1cc2c(cc1OC)C(C(=O)N1CCC3(CC1)OCCO3)C(c1ccccc1F)N(C)C2=O (stereo not given)
→ 9	3	3	-29	-6	3731	1.9
- CCO[C@@H]1OC(C(N)=O)=C[C@H](c2ccc3c(c2)OCO3)[C@H]1CCCO
→ ·	·	·	-15	-2	3932	·
- O=C(Nc1cccc(Cl)c1)ON=Cc1ccncc1
→ -2	9	20	·	·	·	0.5
- O=C(NCc1ccccc1Cl)/C(=C\c1cccnc1)NC(=O)c1ccccc1
→ 6	-6	10	-4	-2	3565	2.3
- CN(C(=O)c1cc2nc(-c3ccco3)cc(C(F)(F)F)n2n1)C1CCCCC1
→ -2	5	5	-18	-3	6365	7.0
- CC(C)(C)C(=O)OCC1OC(n2cnc(C(N)=O)n2)C(O)C1O (stereo not given)
→ -4	1	12	-4	11	4343	0.2
- CCNC(=O)N(C)C[C@H]1N[C@@](C)(C(=O)OC)[C@H]2C(=O)N(C)C(=O)[C@@H]12
→ 0	2	8	-25	·	3714	1.2
- O=C(NCC(c1ccco1)N1CCc2ccccc21)c1ccccc1 (stereo not given)
→ 7	7	7	-23	21	?	-0.7
- CC(Nc1n[nH]c(=O)[nH]c1=O)C(=O)N/N=C/c1ccccc1 (stereo not given)
→ ·	·	·	-13	6	3478	·
- CC12CN3CCN(CC(C3)/C1=N/N=C/c1cccc([N+](=O)[O-])c1)C2
→ ·	·	·	-30	-1	6225	·
- O=C(CCC(=O)OCc1ccc(Cl)cc1)Nc1ccccc1
→ 2	3	-3	-31	8	2696	2.1
- Cc1cc(N2CCCC2=O)ccc1S(=O)(=O)NCCOc1ccccc1
→ -1	-8	1	-2	-1	4798	0.0
- COc1ccc(C2C(C(=O)/C=C/c3ccco3)=C(O)C(=O)N2CCN2CCOCC2)cc1OC (stereo not given)
→ 10	10	8	-6	-1	4493	8.1
- COc1ccc(/C=C(/NC(=O)c2ccccc2)C(=O)NCCN2CCOCC2)cc1OC
→ 2	3	-1	-13	-5	5333	3.2
- CCCCC(O)(c1ccc(CC)cc1)C(CN1CCOCC1)c1ccccc1 (stereo not given)
→ -2	0	5	-8	9	3731	-7.5
- O=C(NCc1ccc(Cl)cc1)N1CCN(Cc2ccccc2)CC1
→ 9	4	-1	-17	24	4119	1.7
- NC(=O)Cn1nc([N+](=O)[O-])nc1Oc1ccc(Br)cc1
→ -3	-17	8	-21	0	4126	21
- CCOC(=O)C1=C(C)N(c2ccc(OCC)cc2)C(=O)/C1=C\c1ccco1
→ 14	6	9	-8	-9	4296	6.1
- N#CCCN(C(=O)COC(=O)c1cccc(S(=O)(=O)N2CCCC2)c1)c1ccc(F)cc1
→ -1	5	2	-11	-5	5140	2.7
- C/C=C(\C)CN1CCC(n2nccc2NC(=O)c2ccc3c(c2)OCO3)CC1
→ 4	3	-5	4	-7	4285	0.7
- CCOc1cc2c(cc1OCC)-n1cccc1C(c1c(O)cccc1OC)NC2 (stereo not given)
→ -6	2	1	-1	-13	3837	0.6
- Cn1c2ccccc2n2c(=O)c(=O)n(CC(=O)c3ccc(Cl)cc3)nc12
→ 5	12	2	-6	-7	2236	3.3
- COC(=O)CCC(NC(=O)c1cc(-c2ccc3c(c2)OCCO3)oc1C)C(=O)OC (stereo not given)
→ 0	2	6	-32	0	4021	5.3
- S=C(NC1CCCCC1)N1CCOCC1
→ 6	4	2	-29	2	6241	4.5

# Among those listed so far, these have a CF3 group:
# Each structure is followed by: Sa ugtP lethal	Mtb hypoxia inh	Mtb hypoxia inh growth	PrP UTR inh	BJeLR lethal	Autofluor counter	Sa RN4220 lethal
- FC(F)(F)c1ccc(Oc2ccc3c(C(F)(F)F)cc(C(F)(F)F)nc3n2)cc1
→ -8	-2	0	8	2	22830*	3.8
- CN(C(=O)c1cc2nc(-c3ccco3)cc(C(F)(F)F)n2n1)C1CCCCC1
→ -2	5	5	-18	-3	6365	7.0

# (continued)
# Each structure is followed by: Sa ugtP lethal	Mtb hypoxia inh	Mtb hypoxia inh growth	PrP UTR inh	BJeLR lethal	Autofluor counter	Sa RN4220 lethal
- COCC(=O)N(Cc1cc2ccc(C)cc2[nH]c1=O)c1cccc(C)c1
→ 0	-10	5	-17	7	3707	1.0
- CCC(=O)N1c2ccc(S(=O)(=O)CCC(=O)NCc3ccc4c(c3)OCO4)cc2CC1C (stereo not given)
→ 7	·	·	-16	4	4664	1.3
- CC(=O)Nc1ccc(S(=O)(=O)NNC(=O)c2cccc(Cl)c2)cc1
→ 8	6	2	-15	3	2009	7.2
- COc1ccc(NC(=O)CN2C(=O)NC3(CCCCCC3)C2=O)cc1Cl
→ 5	3	4	-14	·	2953	2.9
- O=C(Nc1ccc(S(=O)(=O)Nc2ncccn2)cc1)c1cccc(S(=O)(=O)N2CCOCC2)c1
→ 7	·	·	-24	-5	5295	2.6
- Cc1nc2ccccc2[nH]c1=O
→ 2	-7	4	-23	-5	5297	3.9
- CCC(=O)N1CCN(c2ccc(NC(=O)c3ccc(Br)o3)cc2)CC1
→ -5	2	13	-15	-10	2378	3.2
- CSc1ccc(C(=O)C2CCCN(C(=O)c3ccsc3)C2)cc1 (stereo not given)
→ -8	7	0	-8	-1	4830	-0.7
- C#CCOCCOCCOCCNc1nc(N2CCN(C(=O)C(C(C)CC)n3cc(C(N)CO)nn3)CC2)nc(N2CCN(C(=O)C(C(C)CC)n3cc(C(N)CC(C)C)nn3)CC2)n1 (stereo not given)
→ 1	9	-2	·	·	·	1.6
- Cc1[nH]nc(SCC(=O)N2CCOCC2)c1[N+](=O)[O-]
→ 7	12	5	-20	0	3449	4.4
- Cc1nn(-c2ccc(F)cc2)c(Cl)c1C(=O)OC(C)C(=O)N(C)C1CCCCC1 (stereo not given)
→ -13	-3	5	-18	·	5498	9.9
- Cn1ncc2c(Nc3ccccc3Cl)nc(Cl)nc21
→ 15	8	-6	-11	9	3823	3.2
- CN(C)c1ccc(NC(=O)C2CCCN(S(=O)(=O)c3ccccc3)C2)cc1 (stereo not given)
→ 2	1	12	-15	-2	4454	3.1
- CCOC(=O)Cc1c(C)nc2c(-c3cccc(Br)c3)c[nH]n2c1=O
→ -10	-4	-2	-7	-9	3809	11
- CCOC(=O)CNc1nc(Cl)nc(NC(C)(C)C)n1
→ 3	4	-4	-31	-15	2190	2.0
- CCOc1ccc(N(CC(=O)NCc2ccc(Cl)cc2)S(=O)(=O)c2c(C)noc2C)cc1
→ -6	-5	1	-2	-4	5382	-0.4
- Cc1cccc2c(N=NC(=O)c3ccc(NS(=O)(=O)c4cccs4)cc3)c(O)[nH]c12
→ -2	-12	6	-10	·	3971	1.5
- CCOc1ccc2nc(C(C)O)[nH]c2c1 (stereo not given)
→ 4	9	-1	-23	8	13480	2.4
- C=CCNC(=O)CN(c1ccc(F)cc1)S(=O)(=O)c1ccc(OC)cc1
→ 8	·	·	-20	·	2115	1.7
- NC(=O)CN1CCN(c2ccccc2F)CC1
→ 3	·	·	13	·	3864	2.4
- COc1ccc(OCc2ccc(C(=O)N3CCOCC3)cc2)cc1
→ 6	2	6	-15	8	6699	3.2
- CCCCCN(C(=O)CCC(=O)OCc1ccccc1Cl)c1c(N)n(CCCC)c(=O)[nH]c1=O
→ -9	-13	7	9	-23	4436	-2.7
- O=C(Cc1noc2ccccc12)Nc1ccccn1
→ ·	·	·	-63	-3	1951	·
- COc1cc(C=NNC(=O)c2ccccc2-n2cccc2)ccc1O
→ 7	8	2	1	·	4150	1.9
- CNC(=O)COC(=O)/C=C/c1cccs1
→ 1	4	-6	-23	16	4865	1.6
- CCOC(=O)C(CCc1ccccc1)NC1CCc2ccccc2N(CC(=O)O)C1=O (stereo not given)
→ -2	0	-2	·	·	·	2.0

# This is a random part of the collection; 4% or so of the library scored in one or more.
